Bioassay records from PubChem.
MT1-MMP act inh: blockers of MT1-MMP proenzyme processing, primary screen, HT1080 RFP-PRO-GFP cells, GFP/RFP fluorescence; AID 651647, 2012; actives 0.061% (n = 360,000); Matrix metalloproteinase-14 (Homo sapiens), P50281; GFP/RFP ratio fluorescence, overnight; percent of plate control window, DMSO zero; GFP/RFP ratio change, % at 20 µM;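 active = GFP/RFP ratio change of at least 30% with cell ATP level not reduced by more than half and red fluorescence within 50% of control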; also: strong numbers were not always called active
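Test system: HT1080 RFP-PRO-GFP cells; Benchmarks: DMSO and RFP-L50D-GFP cell wells; Timing: cells overnight before dosing, compound overnight, 37 °C, 5% CO2; Compound: one 20 µM compound dose with 1% DMSO; Read-out: GFP/RFP fluorescence ratio.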
Rce1 inh: yeast Rce1p protease inhibitors, primary screen, biochemical, fluorescence, cell-free homogeneous; CAAX prenyl protease 2 (Saccharomyces cerevisiae (strain ATCC 204508 / S288c)), Q03530; yeast membranes, quenched prenylated peptide cleavage fluorescence; calls only; AID 2563, 2010; actives 0.27% (n = 290,000);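 active = fall in fluorescence gain of 50% or more versus controls, with final raw signal at or below 3038400; inconclusive = same 50% fall but final raw signal above 3038400; inactive = fall in fluorescence gain under 50%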;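 also: plate controls were neutral control wells for no effect and wells lacking membranes for full effect; tested at 10 µM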
CSC inhib: cancer stem cell viability inhibitors, primary screen, luminescence. cancer stem cell-like cells viability. inhibition, % at 7.5 µM. actives 1.1% (n = 300,000). AID 2717, 2010;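 active = mean at 75% or more and at least half the replicates too; inconclusive = mean and replicates disagree; tested in HMLE shEcad cells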;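 also: 0% = median of negative and 100% = median of positive control wells; the first replicate is given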
PABP FP inh: PABP poly(A) RNA binding inhibitors, primary screen, biochemical, fluorescence polarization, uHTS; AID 2014, 2009; actives 1% (n = 290,000); inhibition, % at 35 µM; Polyadenylate-binding protein 1 (Homo sapiens), P11940;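 active = 50% or more with normal probe brightness, or confirmed in later tests; inconclusive = above 50% with abnormal brightness, or retests that disagree; inactive = below 50% or failed in later tests; about a fifth of its hits are not listed in these tables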;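 also: calls also rest on retests at 20 µM and on dose response follow-up; controls were probe without protein and protein plus probe with vehicle; some compounds called inactive have numbers as strong as hits; many hits fall short of the cut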
Target sequence (P11940 whole entry, looked up): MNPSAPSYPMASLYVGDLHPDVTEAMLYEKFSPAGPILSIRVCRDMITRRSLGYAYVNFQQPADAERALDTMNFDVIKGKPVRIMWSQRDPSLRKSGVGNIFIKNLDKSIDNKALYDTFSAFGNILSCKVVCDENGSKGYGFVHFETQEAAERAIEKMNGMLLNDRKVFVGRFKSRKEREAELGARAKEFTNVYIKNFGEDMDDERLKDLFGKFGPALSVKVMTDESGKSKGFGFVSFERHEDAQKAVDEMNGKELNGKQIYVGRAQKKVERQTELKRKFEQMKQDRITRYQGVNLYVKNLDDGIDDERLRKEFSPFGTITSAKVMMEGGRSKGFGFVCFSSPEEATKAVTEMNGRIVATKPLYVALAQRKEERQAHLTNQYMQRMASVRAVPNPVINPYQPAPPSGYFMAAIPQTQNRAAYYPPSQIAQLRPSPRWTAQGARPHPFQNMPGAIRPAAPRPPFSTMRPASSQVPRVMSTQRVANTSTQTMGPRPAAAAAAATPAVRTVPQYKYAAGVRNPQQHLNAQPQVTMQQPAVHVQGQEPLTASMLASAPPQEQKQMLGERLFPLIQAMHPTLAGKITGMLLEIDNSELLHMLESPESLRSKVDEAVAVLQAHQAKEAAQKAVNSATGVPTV
Yeast UUG start: modulators of yeast start codon fidelity, primary screen, whole organism, S. cerevisiae, single point, plate reader | S. cerevisiae UUG-firefly luciferase reporter, luminescence/redox ratio | activity score, % at 18.7 µM | actives 0.13% (n = 350,000) | AID 602363, 2012;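 active = replicate mean at a twofold rise or more, about +100% in these data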;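 also: firefly luciferase made from a UUG start codon reports start codon fidelity; reporter light over untreated wells divided by growth signal over untreated wells; some hits fall short of that in this replicate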
Env fusion inh: inhibitors of HIV-1 Env-driven cell-cell fusion, primary screen, HeLa-JRFL effector, CEM21 target cells, luciferase | inhibition, % at 12.3 µM | actives 1.1% (n = 360,000);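 active = mean replicate inhibition score of at least 50 and every replicate individually at or above 50; inconclusive = only one of the two criteria met; inactive = mean below 50 and not all replicates reaching 50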;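 also: 0% = plate neutral controls and 100% = maraviroc near 300 nM; one replicate is shown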
eIF4H FP inh: human eIF4H binding inhibitors, primary screen, translation initiation inhibitor project, biochemical, uHTS, fluorescence polarization. inhibition, % at 35 µM. actives 0.94% (n = 290,000). eIF4H fluorescence polarization binding assay. Eukaryotic translation initiation factor 4H (Homo sapiens), Q15056;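 active = 50% or more with normal probe brightness, or confirmed in later tests; inconclusive = above 50% with abnormal brightness, or retests that disagree; inactive = below 50% or failed in later tests; about a fifth of its hits are not listed in these tables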;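 also: calls also rest on retests at 20 µM and on dose response follow-up; 0% = protein and probe with vehicle and 100% = probe without protein; strong numbers were not always called active; many hits fall short of the cut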
eIF4H FP inh retest: also measured in eIF4H FP inh; calls as there; inhibition, %; compound at 20 µM; confirmation average;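 mean of two retest wells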
PABP FP inh retest: second read-out of PABP FP inh, no call of its own (marks repeat the call); inhibition, %; compound at 20 µM; confirmation repeats;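 mean of two retest wells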
MT1-MMP act inh RFP: further read-out of MT1-MMP act inh, marked with its call; RFP signal change, %; measured here: RFP expression control read;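 0 = vehicle wells; hits needed this value within 50% of zero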
Active calls of the source: *; i = inactive; ? = inconclusive; . = no result given.

SMILES | MT1-MMP act inh | MT1-MMP act inh RFP | Rce1 inh | CSC inhib | PABP FP inh | Yeast UUG start | Env fusion inh | eIF4H FP inh | others
O=C(OCC(=O)N1CCCc2ccccc21)c1ccc(C(F)(F)F)cc1 | . | . | i | -8 | . | -4 | . | .
CCCOc1ccc(C(C)=O)cc1CN1CCOCC1 | 5 | 9 | i | -11 | -8 | -7 | 18 | 5
CCOCCCNC(=O)N[C@@H](Cc1ccccc1)C(=O)OC | 3 | 9 | i | -10 | -4 | -19 | 13 | -7
CCOC(=O)C1(Cc2ccccc2C)CCCN(S(=O)(=O)c2cccnc2)C1 (centres undefined) | 0 | 1 | i | 39 | 5 | . | 20 | 1
S=C(NCc1ccccc1)N1CCN(c2cccc(Cl)c2)CC1 | 3 | 1 | i | 16 | -15 | . | 8 | -10
C=CCN(CC=C)S(=O)(=O)c1ccc(NC(=O)COc2ccccc2OC)cc1 | -11 | 0 | . | 27 | 14 | -2 | 11 | -8
CC(=O)SC1CC2=CC(=O)CCC2(C)C2CCC3(C)C(CCC34CCC(=O)O4)C12 (centres undefined) | 1 | 2 | i | -7 | -8 | 1 | ? | -8
CCOC(=O)C1(S(=O)(=O)c2ccccc2)CCN(Cc2ccccc2)CC1 | 6 | -1 | i | -18 | -1 | -1 | -92 | 4
Cc1ccc(S(=O)(=O)N2CCOCC2)cc1NC(=O)c1cccc(S(=O)(=O)N2CCCC2)c1 | 1 | -1 | i | -12 | 36 | . | 0 | -14
Cc1cc(C)nc(/N=C(\N)Nc2ccc(CC(=O)OC(C)C)cc2)n1 | -1 | -16 | i | 6 | -12 | -13 | 68* | -15
CCCCn1c(SCC(=O)NC2CC2)nc2cc(C(=O)OC)ccc2c1=O | 3 | 2 | . | . | . | -14 | 7 | .
COc1ccc(/C=N/NC(=O)c2sccc2C)c2ccccc12 | 3 | 0 | . | 19 | . | . | -33 | .
CCOc1c(C)cnc2c1c(=O)n(Cc1c(F)cccc1Cl)c(=O)n2C | 8 | 2 | i | -9 | 6 | -1 | 12 | -12
COc1ccc(NC(=S)N2CCN(Cc3ccccc3)CC2)cc1 | 2 | 4 | i | -3 | -2 | . | 16 | 9
O=C(CNC(=S)N(Cc1ccccc1)Cc1ccccc1F)NCc1ccc(Cl)cc1 | -5 | -14 | i | . | -7 | . | 15 | -3
Cc1ccc(CC(C)(O)CC(C)(O)Cc2ccc(C)cc2)cc1 (centres undefined) | 0 | -1 | . | . | . | -30 | -9 | .
Cc1ccc(C(=O)NC(C(=O)NC2CCCC2)c2ccccc2)cc1 (centres undefined) | -2 | 0 | i | -17 | 6 | -9 | -3 | -15
CCC1(C)Cc2ccccc2-c2nc(-c3ccccc3)oc(=O)c21 (centres undefined) | 0 | 4 | i | 44 | -3 | . | -8 | -8
O=C(NCCCN1CCCC1=O)Nc1ccc(F)c(Cl)c1 | 0 | -3 | i | -2 | 8 | -19 | -37 | -3
Cc1n[nH]c(C)c1CCC(=O)N/N=C/c1cccc([N+](=O)[O-])c1 | 1 | 2 | i | . | 8 | . | 2 | -2
Oc1ccc(C2C(c3ccccc3)=NN=C(c3ccccc3F)N2O)c(O)c1 (centres undefined) | -4 | -1 | i | 17 | 8 | -4 | -14 | 5
OC(COc1cccc2ccccc12)CN1CCCC1 (centres undefined) | -2 | -1 | i | . | 2 | -10 | -97 | 4
COC(=O)C(Cc1ccc(O)cc1)NC(=O)c1ccccc1 (centres undefined) | 8 | -2 | i | -4 | -15 | -27 | -3 | 6
O=C(Oc1ccccc1)N1CCN(c2ccccc2F)CC1 | 1 | -1 | i | 0 | 8 | -11 | -6 | 0
COc1ccc(C(=O)NCC(=O)OCC(=O)NCc2ccco2)cc1 | 0 | 2 | . | -10 | . | -1 | . | .
Additional results.
SMILES | MT1-MMP act inh | MT1-MMP act inh RFP | Rce1 inh | CSC inhib | PABP FP inh | Yeast UUG start | Env fusion inh | eIF4H FP inh | others
O=[N+]([O-])c1ccc(S(=O)(=O)NCCc2cn3ccccc3n2)cc1 | 10 | 11 | i | 3 | 5 | 1 | 5 | -2
CC(=O)Nc1ccc(C(=O)NNC(=O)c2ccc(Cl)cc2Cl)cc1 | 5 | -1 | i | 4 | 5 | -25 | 2 | -4
O=C(COC(=O)c1n[nH]c2ccccc12)Nc1ccc([N+](=O)[O-])cc1 | 4 | 5 | i | -6 | 16 | . | -14 | -6
O=C([C@@H]1CCCN1C1=NS(=O)(=O)c2ccccc21)N1CCN(c2ccccc2)CC1 | 3 | 8 | . | . | . | -14 | -22 | .
CC1C(c2ccccc2)OCCN1C=NC#N (centres undefined) | 0 | 3 | . | . | . | -11 | 4 | .
Cc1nc2ccccc2n1Cc1ccc(Br)cc1 | 10 | -27 | i | -1 | . | -21 | -18 | .
COc1ccc2[nH]c(=O)c(CN(C(C)=O)c3cc(C)ccc3C)cc2c1 | 0 | 3 | . | . | . | -8 | 8 | .
Cc1ccc(S(=O)(=O)N2CCOCC2)cc1NC(=O)CSc1nnnn1C1CCCC1 | 4 | 1 | . | . | . | 2 | 3 | .
CCCCOc1nc2ccccc2nc1C(C#N)C(=O)NC1CCCCC1 (centres undefined) | 7 | -6 | i | 11 | 9 | 1 | . | -4
CS(=O)(=O)c1[nH]nc(-c2ccccc2Cl)c1C#N | 5 | 7 | i | 2 | -8 | -1 | -11 | -5
CC(C)Oc1ccc(C2CC(=O)NC3=C2C(=O)CCC3)cc1 (centres undefined) | 0 | -4 | i | -7 | 2 | -13 | . | -7
CCN1C(=S)N[C@@H](c2cccs2)C(C(=O)OC)=C1C | 0 | 2 | i | -4 | 0 | -35 | -88 | -1
CCN(CC)C(=S)Nc1ccc2nc3n(c(=O)c2c1)CCCCC3 | 0 | -2 | i | 1 | 1 | -25 | -7 | -1
Cc1ccc(CNC(=O)CCSCc2ccccc2C)cc1 | -1 | 1 | i | -26 | -6 | 3 | 10 | -13
CCOc1ccccc1NC(=O)CN1C(=O)C(C)SC(C)C1=O (centres undefined) | 9 | 4 | i | . | -3 | . | -13 | -3
COCCCn1c(=N)c(C(=O)NCC2CCCO2)cc2c(=O)n3ccccc3nc21 (centres undefined) | -15 | 1 | i | -9 | 8 | -19 | -2 | 2
Cc1noc(C)c1-c1ccc(C(=O)NCCc2ccccc2)c2occc12 | 10 | 6 | . | . | . | -42 | -49 | .
CC(=NCCCn1ccnc1)c1c(O)n(Cc2ccccc2)c(=O)[nH]c1=O | -4 | -3 | i | -4 | 14 | -8 | -58 | 4
Cc1noc(NS(=O)(=O)c2ccc(NC(=O)CC34CC5CC(CC(Br)(C5)C3)C4)cc2)c1C | -2 | -2 | i | 6 | 6 | -13 | -29 | -3
Cc1cc(=O)[nH]c2c1c(=O)[nH]n2C1CC(C)N(C)CC1C (centres undefined) | 2 | 2 | i | -13 | 3 | 0 | . | 8
CCCCCNc1nc(N2CCCC2)c2c(c1C#N)CCN(C)C2 | -13 | -8 | i | . | 57* | -11 | . | 59*
Cc1ccc(S(=O)(=O)NCCC(=O)Nc2ccc3c(c2)OCO3)cc1 | -1 | 0 | i | -13 | 8 | 9 | . | 0
Cc1ccc(S(=O)(=O)NCC(=O)N(CC(=O)NCC2CCCO2)Cc2ccc(Cl)cc2)cc1 (centres undefined) | 0 | 0 | i | 5 | -3 | -15 | -1 | -8
Cc1noc(C)c1C(=O)OCC(=O)Nc1ccc(C(N)=O)cc1 | 4 | 9 | i | -13 | 13 | -4 | 2 | 2
CN1CCN(c2ncnc3c2ncn3[C@H]2CN(C)C[C@@H](CO)O2)CC1 | 0 | 1 | . | . | . | -18 | 1 | .

Compounds shown so far with bromine (2):
SMILES | MT1-MMP act inh | MT1-MMP act inh RFP | Rce1 inh | CSC inhib | PABP FP inh | Yeast UUG start | Env fusion inh | eIF4H FP inh | others
Cc1nc2ccccc2n1Cc1ccc(Br)cc1 | 10 | -27 | i | -1 | . | -21 | -18 | .
Cc1noc(NS(=O)(=O)c2ccc(NC(=O)CC34CC5CC(CC(Br)(C5)C3)C4)cc2)c1C | -2 | -2 | i | 6 | 6 | -13 | -29 | -3

Additional results follow.
SMILES | MT1-MMP act inh | MT1-MMP act inh RFP | Rce1 inh | CSC inhib | PABP FP inh | Yeast UUG start | Env fusion inh | eIF4H FP inh | others
COc1ccc(NC(=O)c2cc(-c3ccco3)nc3ccccc23)cc1S(=O)(=O)N1CCOCC1 | -1 | 3 | i | -3 | 50* | -9 | 11 | 71 | eIF4H FP inh retest=-2;PABP FP inh retest=85*
C=CC[C@H](CC(=O)NCCO)C(=O)N[C@@H](COC(=O)[C@H](CC=C)CC(=O)OC(C)(C)C)Cc1c[nH]c2ccccc12 | -1 | -2 | . | -18 | . | 11 | -132 | .
COc1cc2c(c(OC)c1OC)CC(=O)N(C)CC2 | 3 | 4 | i | -10 | -4 | -9 | . | 10
O=C(CSCSCC(=O)Nc1ccc2c(c1)OCO2)Nc1ccc2c(c1)OCO2 | -13 | -3 | i | 13 | -2 | -7 | 32 | 1
CC(=O)Nc1cccc(NC(=O)c2cc(C)on2)c1 | 2 | -1 | i | -3 | 8 | 2 | . | 9
COc1cc(C#Cc2c(-c3ccccc3)n(C)c3ccccc23)cc(OC)c1 | -5 | 0 | i | 35 | -11 | 1 | . | -4
Cc1ccc(S(=O)(=O)N2CCN(C(=O)COC(=O)C3CC3C)CC2)c(C)c1 (centres undefined) | -3 | 4 | . | -6 | . | 2 | 5 | .
COC(=O)C1C/C(=N\NS(=O)(=O)c2ccc(C)cc2)c2sccc2C1 (centres undefined) | 1 | 3 | i | -28 | 7 | . | -7 | 5
O=C1c2ccccc2C(=O)N1CCc1c[nH]c2ccccc12 | -6 | -1 | i | -9 | -2 | . | -14 | 7
CCC(C)NC(=O)CN(c1cc(Cl)cc(Cl)c1)S(C)(=O)=O (centres undefined) | 2 | 1 | i | -15 | 5 | . | 7 | 1
COCC(=O)N1C[C@H]2CON(C)[C@H]2C[C@H]1c1cccc(-c2ccccc2)c1 | 2 | 4 | . | . | . | -11 | 5 | .
O=C(CSc1nc2c(sc3ccccc32)c(=O)n1CCCN1CCOCC1)NC1CCCC1 | 3 | -2 | i | -14 | -18 | -10 | -4 | -13
NC(=O)c1cccc(-c2coc3c(C(=O)NCCc4ccccc4)cccc23)c1 | 7 | 4 | . | . | . | -1 | 30 | .
O=C(Nc1ccccc1C(F)(F)F)Nc1cccc2ccccc12 | 2 | 3 | i | -2 | -1 | -19 | -12 | -3
COc1ccccc1/C=C/C(=O)Nc1ccc(S(=O)(=O)Nc2cc(C)on2)cc1 | 4 | -2 | i | -8 | 3 | -22 | -3 | -9
O=C(O)c1ccccc1N=Cc1c(O)n(-c2nccs2)c(=O)c2ccccc12 | -1 | 6 | i | 0 | 12 | . | 4 | 7
CCOCCCN(C(=O)CCC(=O)Nc1cc(C)on1)C(C(=O)NC(C)(C)CC)c1cccc(OC)c1OC (centres undefined) | 1 | 0 | i | 1 | 9 | -5 | 9 | 7
O=C(NCCCn1ccnc1)c1cccc(S(=O)(=O)Nc2ccc(Br)cc2)c1 | -3 | 1 | i | 26 | . | -18 | -27 | .

Compounds were not picked by outcome; any-hit rate near 3%.
